Resorufin autofl – compound fluoresces in the resorufin spectral region; AID 588; 0.04% of 59,000 active; max dye-equivalent concentration, M; Compound fluorescence, resorufin region 547/598 nm, buffer; active compounds read high; active = above 10 nM dye equivalent; inconclusive = 1 to 10 nM; inactive = 1 nM or less; a few of its hits are not listed in these tables; further: highest value over a series up to 38 µM
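Compounds in 100 mM Tris buffer, pH 8.0, incubated 15 min at room temperature, then read with 547 nm excitation and 598 nm emission filters. Fluorescence was converted to dye-equivalent concentration using an on-plate six-point resorufin standard curve.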
TSHR agonist – activates the human thyroid stimulating hormone receptor; Potency, µM (highest dose often 57.1 µM), for inactives: top-dose activation, hits mostly activators; HEK293-CNG-TSHR cells (CNG channel as cAMP sensor), membrane potential dye, cAMP; 0.48% of 73,000 active; AID 926; P16473; active = well fitted activation curve of enough size with the parental cells flat; inconclusive = any curve in the parental cells; inactive = parental cells flat and receptor cells flat or falling; further: potency means the concentration at half of the fitted maximal effect; % of control where 0% means no effect; weak receptor curves with flat parental cells got no call and are not listed
Target sequence (P16473 whole entry, looked up): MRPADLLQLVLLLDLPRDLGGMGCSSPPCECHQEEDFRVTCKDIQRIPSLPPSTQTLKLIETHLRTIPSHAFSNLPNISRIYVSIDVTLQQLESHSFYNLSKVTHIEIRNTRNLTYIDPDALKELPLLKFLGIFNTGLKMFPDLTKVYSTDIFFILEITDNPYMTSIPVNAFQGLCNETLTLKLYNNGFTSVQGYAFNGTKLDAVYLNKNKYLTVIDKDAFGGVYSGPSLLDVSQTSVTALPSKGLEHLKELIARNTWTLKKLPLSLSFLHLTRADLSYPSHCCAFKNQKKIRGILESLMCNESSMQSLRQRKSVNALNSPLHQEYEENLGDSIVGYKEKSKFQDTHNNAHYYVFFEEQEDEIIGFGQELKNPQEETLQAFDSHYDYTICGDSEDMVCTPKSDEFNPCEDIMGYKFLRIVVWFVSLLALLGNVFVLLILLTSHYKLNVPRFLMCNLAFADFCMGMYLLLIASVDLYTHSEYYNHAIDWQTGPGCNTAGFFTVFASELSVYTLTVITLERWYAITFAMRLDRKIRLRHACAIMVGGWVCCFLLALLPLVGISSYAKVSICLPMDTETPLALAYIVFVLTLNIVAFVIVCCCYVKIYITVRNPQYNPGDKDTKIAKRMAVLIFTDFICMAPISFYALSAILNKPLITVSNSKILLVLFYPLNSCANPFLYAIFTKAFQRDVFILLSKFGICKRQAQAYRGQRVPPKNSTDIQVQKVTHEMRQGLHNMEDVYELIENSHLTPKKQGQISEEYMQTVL
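HEK 293 cells stably expressing TSHR and a modified CNG channel, with CNG-only parental cells as counterscreen, were preloaded 60 min at room temperature with membrane potential dye containing 100 uM RO 20-1724. Compound exposure was 30 min, and depolarization was read as fluorescence at 590 nm.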
A488 fluor – compound autofluorescence in A488 spectral region. compound autofluorescence, A488 spectral region, dye equivalency; active compounds read high. max dye equivalency, M. 0.1% of 59,000 active. AID 591; active = above 10 nM dye equivalent; inconclusive = 1 to 10 nM; inactive = 1 nM or less; about half of its hits are not listed in these tables;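 further: highest value over a series up to 38 µM; compound alone in buffer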
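Intrinsic compound fluorescence is measured in 100 mM Tris buffer at pH 8.0 following 15 min incubation at room temperature. Intensities at 480 nm excitation/540 nm emission are calibrated to an on-plate A488 concentration series, giving dye-equivalent concentrations.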
A647 fluor – A647 region autofluorescence | max dye-equivalent concentration, M | 59,000 tested, under 10 active | Compound fluorescence, A647 channel (570/671 nm), Tris buffer; active means above 1 µM dye equivalent; inconclusive means 0.1 to 1 µM; inactive means 0.1 µM or less;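 further: values scaled relative to a standard on each plate; highest value over a series up to 38 µM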
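Buffer was dispensed, compounds and Alexa 647 standards were pin-transferred, and plates sat 15 min at room temperature. Intensity at 570/671 nm was then converted to dye-equivalent concentration using the plate's A647 standard curve.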
AID923 – qHTS Assay for Allosteric/Competitive Inhibitors of Caspase-1: Spectroscopic Profiling in AFC Spectral Region; compound fluorescence, AFC spectral region (405/520 nm); almost no hit is shown here; AID 923, 2007; 1.1% of 75,000 active; Potency, µM (doses to about 57.5 µM), for the others: at the highest dose fluorescence increase, hits mostly activators; active means well fitted activation curve with a large enough effect; inconclusive means small, poorly fitted or top-dose-only effect;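 further: potency means the concentration at half of the fitted maximal effect; 0% is about no effect; scaled to a free AFC standard on each plate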
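Compound autofluorescence profiled at 405 nm ex/520 nm em during kinetic caspase 1 run (50 nM enzyme, 5 uM Ac-WEHD-AFC, HEPES pH 7.5, 10 mM DTT). Titration up to 57 uM; baseline from regression intercept, normalized to AFC standard curve.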
The depositor's hits bear a star; i = inactive; u = inconclusive; x = no result given; [ ] = dose if it differs, or a comment. An excerpt (hit frequency here may not be typical).

The line under a structure holds: Resorufin autofl	TSHR agonist	A488 fluor	A647 fluor	AID923
O=C(NCc1ccc(Cl)cc1)C1C2C=CC3(CN(Cc4cccnc4)C(=O)C13)O2 (centres undefined)
→ i	2.9%	i	3.1e-09	0.1%
Cc1nn(-c2cc(C)c3ccccc3n2)c2c1CCC2
→ i	7.6%	i	5e-09	0.0%
O=P(O)(CCc1ccccn1)CN1CCCCC1
→ x	4.1%	x	x	3.5%
CCC/C=C/C1C(=O)C2OC2C2(OCC(CC)(CC)CO2)C1CO (centres undefined)
→ x	3.3%[11.4 µM]	x	x	-1.2%[11.5 µM]
C=CCn1c(SCC(=O)c2ccc(NS(=O)(=O)c3ccccc3)cc2)nnc1-c1cccs1
→ i	x	i	1.26e-08	x
COc1cccc(Cn2c(=O)c(-c3ccc(F)cc3)nc3cncnc32)c1
→ i	-4.5%	i	1.4e-09	1.8%
CCOC(=O)C(C(=O)N1CCOCC1)C1CCCCC1 (centres undefined)
→ i	23.5%	i	4.09e-08	0.4%
O=C(Nc1ccc(Cl)cn1)c1ccc(COCC(F)(F)C(F)F)o1
→ i	12.3%	i	1.1e-09	-0.7%
O=C(COc1ccc2ccccc2c1Br)Nc1ncn[nH]1
→ i	4.2%	i	1.07e-08	3.0%
CO/N=C(/C(=O)N[C@@H]1C(=O)N2C(C(=O)O)=C(COC(N)=O)CS[C@H]12)c1ccco1
→ x	u	x	x	0.2%
COc1cc2nc(C)sc2cc1SC
→ i	4.1%	i	1e-09	-1.2%
O=S(=O)(Nc1cccc(-c2nc3cccnc3s2)c1)c1ccc2c(c1)OCCO2
→ x	91.3%	x	x	6.3%
C=CCN1C(=O)C2(C(C#N)=C(N)Oc3n[nH]c(CCC)c32)c2ccccc21 (centres undefined)
→ i	7.1%	i	4.5e-09	-1.1%
CCN(Cc1ccccc1)C(=O)Cn1c(=O)n(CC(=O)NCc2ccco2)c(=O)c2sccc21
→ i	10.1%[11.4 µM]	i	4.49e-08	-1.4%
O=c1sc2ccccc2n1COc1ccccc1
→ x	u	x	x	2.5%
CCNC(=O)c1ccc2c(c1)S(=O)(=O)c1ccccc1C2=O
→ i	-4.2%	i	6.8e-09	1.2%
CC(C)c1ccccc1OCCNS(C)(=O)=O
→ x	-2.7%	x	x	2.3%
O=C(OCCN1C(=O)c2ccccc2C1=O)C1CCN(S(=O)(=O)c2cccs2)CC1
→ i	8.3%	i	9.2e-09	1.0%
N#Cc1nc(Cc2ccccc2)oc1NCc1ccccc1Cl
→ i	u	i	1e-09	-1.2%
COc1cc(C2Nc3cccc4cccc(c34)N2)ccc1OC(C)=O
→ i	u	i	1e-09	0.3%
CCn1c(SCC(=O)NC)nnc1C(C)C
→ i	5.6%	i	3.78e-08	0.3%
CCOc1cc(C2C(C#N)=C(N)Oc3n[nH]c(C)c32)ccc1OCCN1CCOCC1 (centres undefined)
→ i	-3.7%	i	2.06e-08	-0.2%
CC(=O)c1cccc(NS(=O)(=O)N(C)C)c1
→ i	-13.2%	i	1e-09	0.0%
Cc1nnc(SCC(=O)N2c3ccccc3Sc3ccccc32)n1N
→ i	5.4%	i	2e-08	-1.5%
O=C(NC1CCCCC1)Sc1ccc(Cl)cc1
→ i	-4.2%	i	1.6e-09	0.1%
Cc1cc(Nc2ccccc2)n(CCC#N)n1
→ i	u	i	1.07e-08	-1.0%
O=C(CCn1nc(-c2ccc(Cl)cc2)ccc1=O)NCc1ccccn1
→ i	3.9%	i	1e-09	0.8%
CN(C)c1ccc(NC(=O)CN2CCN(S(=O)(=O)c3cc(Cl)ccc3Cl)CC2)cc1
→ i	-20.8%	i	1e-09	-1.1%
CCOC(=O)c1[nH]c(C)c(C(=O)N2CCN(c3ccc(F)cc3)CC2)c1C
→ i	u	i	1e-09	1.3%
O=S(=O)(c1ccccc1)c1nc(-c2cccs2)oc1NCC1CCCO1 (centres undefined)
→ i	u	i	1e-09	-0.9%
O=C(CN1C(=O)COc2ccc(Cl)cc21)N1CCc2ccccc21
→ i	14.3%	i	1.27e-08	2.5%
Clc1ccc(SCCn2ccnc2)cc1
→ x	u	x	x	3.4%
Cc1cc(C)c(C#N)c(SCc2ccccc2C(=O)O)n1
→ i	4.3%	i	1e-09	0.4%
CN(C)c1ccc(-c2nccc(NCCN3CCOCC3)n2)cc1
→ i	7.8%	i	1.1e-09	9.5%
Cn1c(SCCSc2nnc(-c3ccccc3)n2C)nnc1-c1ccccc1
→ x	-18.6%	x	x	0.0%
CCOC(=O)c1[nH]c(C)c(C(=O)N2CCN(c3ccccc3)CC2)c1C
→ i	1.4%[11.4 µM]	i	2.3e-09	-1.1%
CCOC(=O)C(CC)Sc1nc2c(c(=O)[nH]c(=O)n2C)n1C/C=C(/C)Cl (centres undefined)
→ i	u	i	1e-09	3.4%
Cc1c(-c2ccccc2)nc2ccccc2c1C(=O)O
→ i	x	i	3.96e-08	1.1%
CCn1c(=O)c2ccccc2n2c(SCC(=O)N3CCCc4ccccc43)nnc12
→ i	-2.4%	i	1e-09	0.0%
Cc1cc(S(=O)(=O)NCCc2ccccc2)c(C)s1
→ x	8.1%	x	x	-0.1%
NC(=O)COC(=O)C(Cc1ccccc1)NS(=O)(=O)c1ccccc1F (centres undefined)
→ i	0.2%	i	6.1e-09	1.5%
O=C1CCc2cc(S(=O)(=O)N3CCC(C(=O)NCc4ccccn4)CC3)ccc2N1
→ x	-2.3%	x	x	1.6%
O=C(NCc1cccnc1)c1cn(CCc2ccccc2)nn1
→ i	1.8%	i	4.43e-08	1.4%
Cn1c(SCC(=O)NCc2ccc3c(c2)OCO3)nnc1-c1c[nH]c2ccccc12
→ i	11.9%	i	1e-09	-2.2%
CCOC(=O)c1ccc(NC(=O)CC2OCCN(CC)C2=O)cc1 (centres undefined)
→ i	2.8%	i	9.8e-09	-1.5%
CSc1nc(SCC(N)=O)c2c3c(sc2n1)CN(C)CC3
→ i	17.6%	i	1e-09	2.2%
OCc1ccc(-c2nn(Cc3ccccc3)c3ccccc23)o1
→ i	28.3%	i	5.58e-08	-3.1%
CCOCCCNc1ncnc2c1[nH]c1ccccc12
→ i	u	i	2.82e-08	0.4%
CCc1nc(C)cn1S(=O)(=O)c1cc(OC)c(C)cc1C
→ i	u	i	1e-09	-0.2%
CCCNC(=O)NC(=O)COC(=O)c1ccc(OC)c(S(=O)(=O)N2CCCc3ccccc32)c1
→ i	x	i	1.55e-08	-1.3%
COc1ccccc1CNS(=O)(=O)c1ccc2c(c1)oc(=O)n2C
→ x	4.1%	x	x	1.2%
Oc1ccc(Br)cc1-c1cc(-c2ccccc2F)[nH]n1
→ i	x	i	8.5e-09	x
CCC(C)(C)NC(=O)C(c1ccc(C)o1)N(Cc1cccs1)C(=O)Cn1nnc2ccccc21 (centres undefined)
→ i	u	i	3.8e-08	-1.3%
C=CCNc1nc(N)c(C(=O)c2ccc3c(c2)OCO3)s1
→ i	-9.3%	i	7e-09	-0.2%
CCn1c(NCc2cccc(OC)c2OC)nc2ccccc21
→ i	-3.3%	i	7e-09	-0.4%
O=C(CCc1nc2ccccc2[nH]c1=O)OCc1ccc(S(=O)(=O)N2CCOCC2)cc1
→ i	4.0%	i	4.5e-09	-1.1%
CC1CN(C(=O)Nc2ccc3snnc3c2)c2ccccc21 (centres undefined)
→ x	-0.9%	x	x	1.3%
O=C(Nc1ccccc1)OC1C2CCC1C(N1CCCCC1)CC2 (centres undefined)
→ i	13.2%	i	5.4e-09	0.8%
COc1cc(C)c(Cl)cc1S(=O)(=O)NCc1ccco1
→ i	-2.4%	i	9.5e-09	-2.7%
CCOC(=O)Cn1c(N2CCCCCC2)nc2c1c(=O)[nH]c(=O)n2C
→ i	0.3%	i	3.55e-08	0.2%

(more compounds)
The line under a structure holds: Resorufin autofl	TSHR agonist	A488 fluor	A647 fluor	AID923
O=C(CN1C(=O)CCS(=O)(=O)c2ccccc21)NCc1ccc2c(c1)OCO2
→ i	u	i	6.6e-09	0.2%
CCCN1Cc2cccc(C(=O)NC3CCCC3)c2C1=O
→ i	2.3%	i	2.94e-08	0.2%
OC(CNCCCN1CCCCC1)COc1ccccc1 (centres undefined)
→ i	x	i	5e-09	x
O=C1CN(C(=O)c2ccco2)C(c2ccc(F)cc2)c2cc(Cl)ccc2N1 (centres undefined)
→ i	23.3%	i	1.15e-08	2.0%
COc1ccc(C2C3=C(CC(C)(C)CC3=O)Nc3n[nH]c(C)c32)cc1 (centres undefined)
→ i	23.2%[11.4 µM]	i	3.13e-08	-0.4%
CCCS(=O)(=O)N1CCCC(C(=O)NC2CCCCC2)C1 (centres undefined)
→ i	0.0%	i	1.3e-09	2.1%
CCOC(=O)c1[nH]c2ccccc2c1NC(=O)CN(C)C
→ i	x	i	4.56e-08	x
CC(=O)Nc1ccc(OCC(O)Cn2nc(C)c(C(C)=O)c2C)cc1 (centres undefined)
→ i	0.8%	i	3.26e-08	-0.4%
C/C(=N\O)C(=O)NCC1CCNCC1
→ i	-1.8%	i	2.79e-08	0.8%
Cc1cc(C)n(C(=O)CCC(=O)NCc2ccccc2)n1
→ i	0.0%	i	1e-09	0.2%
Nn1c(SCc2csc(-c3ccccc3)n2)nnc1-c1cccs1
→ i	u	i	5.8e-09	0.1%
C=C(C)C(O)C(CC/C=C(\C)C(=O)OCC)OC (centres undefined)
→ x	-12.2%[11.4 µM]	x	x	-3.1%[11.5 µM]
Cc1oc(CC(C)C)c(CN2CCCC2)c1C(=O)O
→ i	u	i	1e-09	-0.2%
O=C(CSc1nnc2n(C3CCCCC3)c(=O)c3ccccc3n12)OC1CCCCC1
→ i	4.7%	i	2.4e-09	2.1%
Cc1cc(C(F)F)n2nc(C(=O)Nc3c(F)cc(F)cc3Br)nc2n1
→ i	-11.7%	i	8.9e-09	-2.5%
CCc1nc(NC2CCCCC2)c(C#N)c2c1COC(C)(C)C2
→ i	x	i	2.45e-08	x
COC(=O)[C@H](CCSC)NC(=O)Nc1ccc(C(C)=O)cc1
→ i	1.5%	i	7.7e-09	1.2%
Cc1ccc(C)c(N2CCN(C(=O)C3CCN(S(=O)(=O)c4cccc5nsnc45)CC3)CC2)c1
→ i	-15.8%	i	1e-09	1.9%
O=C(Nc1nnc(SCc2ccccc2F)s1)c1ccco1
→ i	x	i	1.17e-08	x
Cc1cccc(N2CCN(C(=O)c3ccc(N4CCCC4=O)cc3)CC2)c1C
→ i	u	i	1e-09	-0.3%
Oc1ccc2cccnc2c1
→ i	2.3%	i	4.24e-08	15.8µM*
CCOC(=O)N1CCN(c2c(NCC3CCCO3)c(=O)c2=O)CC1 (centres undefined)
→ x	-7.0%	x	x	1.2%
C=CCOC(=O)c1[nH]c2c(c1C)C(=O)CC(c1cc(OC)c(OC)c(OC)c1)C2 (centres undefined)
→ x	u	x	x	1.7%
Cc1cc(C(=O)OCC(=O)c2ccc(Br)s2)c(C)o1
→ i	11.8%	i	1.77e-08	4.7%
COc1ccccc1-c1nnc2n1N=C(c1ccc(O)c(O)c1)CS2
→ i	x	i	3.18e-08	x
Cc1ccn2cc(C(=O)Nc3nnc(C)s3)nc2c1
→ i	0.4%	i	6.29e-08	2.6%
Cc1ccc(C2CC(C(F)(F)F)n3ncc(C(N)=O)c3N2)cc1 (centres undefined)
→ i	x	i	6.89e-08	x

3 entries already listed, ordered by their value in A647 fluor, largest number first.
SMILES	A647 fluor
Cc1ccc(C2CC(C(F)(F)F)n3ncc(C(N)=O)c3N2)cc1 (centres undefined)	6.89e-08
Oc1ccc2cccnc2c1	4.24e-08
Cc1cc(C(=O)OCC(=O)c2ccc(Br)s2)c(C)o1	1.77e-08

High-throughput results: PubChem, National Center for Advancing Translational Sciences (NCATS)
